KCNQ2 block: KCNQ2 potassium channel inhibitors, primary screen, cell-based, CHO-K1, FluxOR thallium flux, B-score (AID 2156) | Potassium voltage-gated channel subfamily KQT member 2 (Rattus norvegicus), O88943 | B-score at 10 µM | 20 min; stronger effect = lower value; only compounds with negative scores are shown here; some inactives read as strong as hits | actives 1.1% (n = 310,000);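 active means fluorescence ratio B-score at most minus 3 library SDs, with starting brightness B-score within 2 library SDs, cut at about -5.5 in these data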
Target sequence (O88943 whole entry, looked up): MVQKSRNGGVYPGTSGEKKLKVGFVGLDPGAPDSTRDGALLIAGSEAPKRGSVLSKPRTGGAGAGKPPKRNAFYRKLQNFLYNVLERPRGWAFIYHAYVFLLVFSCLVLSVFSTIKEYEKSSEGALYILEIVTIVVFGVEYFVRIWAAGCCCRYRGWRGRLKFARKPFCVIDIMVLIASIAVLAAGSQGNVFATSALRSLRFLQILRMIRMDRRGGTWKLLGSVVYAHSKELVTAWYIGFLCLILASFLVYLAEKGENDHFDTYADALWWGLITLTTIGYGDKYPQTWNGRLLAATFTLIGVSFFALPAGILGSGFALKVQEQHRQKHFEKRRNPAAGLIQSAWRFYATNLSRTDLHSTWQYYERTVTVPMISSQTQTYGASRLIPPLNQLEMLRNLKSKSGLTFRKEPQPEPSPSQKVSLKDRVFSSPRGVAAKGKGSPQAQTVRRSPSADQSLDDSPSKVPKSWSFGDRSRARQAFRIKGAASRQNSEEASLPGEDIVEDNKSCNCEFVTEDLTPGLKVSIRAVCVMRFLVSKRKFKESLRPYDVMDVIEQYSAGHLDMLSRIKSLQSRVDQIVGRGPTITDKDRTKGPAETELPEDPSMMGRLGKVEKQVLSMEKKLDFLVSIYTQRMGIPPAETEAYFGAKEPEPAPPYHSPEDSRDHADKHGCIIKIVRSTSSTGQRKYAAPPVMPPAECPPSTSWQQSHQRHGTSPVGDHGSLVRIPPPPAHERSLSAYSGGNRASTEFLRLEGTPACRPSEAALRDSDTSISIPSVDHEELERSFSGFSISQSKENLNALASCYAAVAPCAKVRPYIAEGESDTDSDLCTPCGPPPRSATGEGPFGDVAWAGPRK
KCNQ2 block baseline: second read-out of KCNQ2 block, no call of its own (marks repeat the call); B-score; measured here: initial fluorescence intensity artifact check;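 brightness before thallium and not channel activity; 0 = typical well and far values either way flag optical interference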
Active calls of the source: *; i = inactive. Only part of the results is shown; count on the stated rates, not on these rows.

SMILES | KCNQ2 block | KCNQ2 block baseline
CN(C)Cc1cn(CCC(=O)O)c2ccccc12 | i | -0.89
CN(C)C(=S)Nc1ccc2ccccc2c1 | i | 4.4
COc1ccc(Cl)cc1C(=O)Nc1ccc(N(C)C(C)=O)cc1 | i | 0.01
Nc1nc(SCc2c(F)cccc2Cl)[nH]c(=O)c1-c1ccccc1 | i | -0.64
CCCCCc1c(C)c(C#N)c2nc3ccccc3n2c1-n1ccnc1C | i | 0.71
Cc1ccc(S(=O)(=O)N(C)C)cc1-n1c(SCC(=O)Nc2ccc(F)c(F)c2F)nc2ccccc2c1=O | i | 0.42
Cn1c(=O)[nH]c(=O)c2c1nc1n2CC(O)CN1c1ccccc1 (configuration not stated) | i | -0.97
CCOC(=O)C1CCN(C(=O)c2cccc(NC(=O)C(CC)CC)c2)CC1 | i | 1
COc1cccc(C2C(C(=O)Nc3nc4ccccc4s3)=C(C)NC3=C2C(=O)CC(C)(C)C3)c1OC (configuration not stated) | i | -1.6
CC1CCN(Cc2nc3c(c(=O)n(C)c(=O)n3C)n2CCCc2ccccc2)CC1 | i | -0.96
COc1ccc(Cl)cc1NC(=O)CN(C)C(=O)c1cc(-c2ccncc2)nc2ccccc12 | i | -1.8
COc1ccc(/C=C2\SC(=O)N(CC(=O)Nc3ccccc3O)C2=O)cc1OC | i | -0.01
O=C(C1CC1)N1CCCC(c2ccc(Cl)cc2)=N1 | i | -1.1
CCOC(=O)CN(Cc1ccccc1)C(=O)OC(C)(C)C | i | -0.27
O=C(c1ccc(F)cc1)C(CCCCCC(CN1CCOCC1)C(=O)c1ccc(F)cc1)CN1CCOCC1 (configuration not stated) | i | -2
Cc1nc(C)c(C(=O)NCc2ccc(Cl)cc2)o1 | i | -0.53
CC1Cc2ccccc2N1C(=O)c1ccc(Br)o1 (configuration not stated) | i | 0.99
COCC(=O)Nc1c(C(=O)Nc2cccc(OC)c2)oc2ccccc12 | i | -0.55
Cc1csc(NC(=O)CSc2nccn2Cc2ccco2)n1 | i | 1.2
O=C(Cn1nnc2ccccc21)N1CCCCC1 | i | 0.8
Cc1cc(=O)n2c(n1)OC(CO)C2 (configuration not stated) | i | 2.5
COC(=O)c1ccc(NC(=O)c2ccc(CN3CCOCC3)cc2)cc1 | i | 0.74
CCN(CC(=O)Nc1ccc(NC(C)=O)cc1)C(=O)CCCc1nc2ccccc2c(=O)[nH]1 | i | 0.46
Cc1cc(C)cc(NC(=O)CSc2n[nH]c(-c3cccnc3)n2)c1 | i | 2
O=C(NCCN1CCOCC1)/C(=C\c1ccccc1F)NC(=O)c1ccccc1 | i | 3.4
CC(=O)N1c2ccc(S(=O)(=O)NCCC(=O)Nc3ncccc3C)cc2CC1C (configuration not stated) | i | 0.45
C[C@]12CCC(=O)CC1CCC1C2CC[C@@]2(C)C1CC[C@@]21CCO1 (some centres not stated) | i | 0.3
COc1ccc(/C=N/NC(=O)Cc2cccs2)cc1 | i | 1.4
O=C(CN1CCN(c2ccccc2)CC1)Nc1ccccc1Sc1ccccc1 | i | -0.1
COc1ccc(NS(=O)(=O)c2ccc(C)c(C(=O)NC3CCN(Cc4ccccc4)CC3)c2)cc1 | i | -1.5
O=[N+]([O-])c1ccc(Sc2cc[n+]([O-])c3ccccc23)c([N+](=O)[O-])c1 | i | -2.8
NC(=S)Nc1ccc2cn[nH]c2c1 | i | -0.01
CCC(C)(C)NC(=O)C(c1ccc(C)cc1)N(Cc1cccs1)C(=O)c1ccc2c(c1)OCCO2 (configuration not stated) | i | -0.34
O=S(=O)(c1ccc(Cl)c(C(F)(F)F)c1)N1CCN(CC(O)COc2ccccc2F)CC1 (configuration not stated) | i | 1.1
CCCNC(=O)OC[C@H]1O[C@H](CCO/N=C(\C)CCN2CCc3nc(-c4ccccc4)c(-c4ccccc4)cc3C2)C=C[C@@H]1Oc1ccc(OC)cc1 | i | 2.1
COc1ccccc1CCNC(=O)C(=O)c1cn(CC(=O)N2CCCC2)c2ccccc12 | i | -1
Cc1cccc2cc(C(c3nnnn3C3CCCC3)N3CCOCC3)c(=O)[nH]c12 (configuration not stated) | -7.8* | -0.06*
CCOc1ccc(CN2CCN(Cc3cccn3-c3nccs3)CC2CCO)cc1 (configuration not stated) | i | -2.4
NS(=O)(=O)c1ccccc1NC(=O)c1c(O)c2ccccc2[nH]c1=O | i | 0.99
CCCOc1cccc(-c2cc(C(=O)NNC(=S)NCC)c3ccccc3n2)c1 | i | 0.19
FC(F)(F)c1cccc(Sc2cc(C(F)(F)F)nc(-c3ccccn3)n2)c1 | i | -1.5
Cc1c(C)c2cc(Cl)c(OCc3nn[nH]n3)cc2oc1=O | i | 0.17
COc1cc2c(cc1OC)C(C)N(C(=O)c1cccs1)CC2 (configuration not stated) | i | -0.83
CC(=O)c1cc(CN2CCCCC2)cc(OC(C)C)c1 | i | -0.65
Cc1cccc(-n2c(SCC(=O)Nc3nonc3C)nnc2-c2ccoc2C)c1 | i | 0.06
CC(C)CN=C(NS(=O)(=O)c1ccccc1)C(Cl)(Cl)Cl | i | -1.4
Brc1ccccc1-c1nnc(SCc2nc3ccccc3s2)o1 | i | 1.7
Cc1ccc(-n2nnnc2C(=Cc2ccc(N(C)C)cc2)c2nnnn2-c2ccc(C)cc2)cc1 | i | -1.5
O=C(NCCN1CCOCC1)c1cc([N+](=O)[O-])cc([N+](=O)[O-])c1 | i | 0.06
COC(=O)C1=C(C)N(c2ccc(OC)c(OC)c2)C(=O)/C1=C\c1cccs1 | i | 1
CCOC(=O)c1c(N2C(=O)Nc3ccccc3N2O)sc2c1CCCC2 | i | 2.4
COc1ccc(/C=C2\SC(=S)NC2=O)cc1OS(=O)(=O)c1ccc(NC(C)=O)cc1 | i | 0.35
CCOC(=O)c1oc2ccccc2c1NC(=O)COC | i | 1.1
NC(=O)c1ccccc1NC(=O)CN1CCCCCC1 | i | 0.36
CCOc1ccccc1NC(=O)c1cc(-c2ccncc2)nc2c(Cl)cccc12 | i | -0.63
C=CCOc1c(CNc2ccc3[nH]c(=O)[nH]c3c2)cccc1OC | i | -3.7
OC1(c2ccc(Cl)cc2)CCN(Cc2nc(-c3cnccn3)no2)CC1 | i | 1
Oc1ccc(C=Nc2ccccc2-c2nc3ccccc3[nH]2)c(O)c1 | i | -0.6
Nc1c(Br)cc2oc(-c3ccccc3)nc2c1Br | i | 2.1
Cc1cc(C)c2oc(=O)cc(CN3CCC(C)CC3)c2c1 | i | -0.47

Following part
SMILES | KCNQ2 block | KCNQ2 block baseline
COc1ccc(NC(=O)COC(=O)CNC(=O)C2CCCCC2)cc1 | i | 0.69
CC1CN(S(=O)(=O)c2cccc(C(=O)OC/C(O)=C(\C#N)c3nc4ccccc4[nH]3)c2)CC(C)O1 (configuration not stated) | i | -0.75
CCOC(=O)C1=C(O)/C(=C/N(C)C)N=C1C | i | 1.8
Cc1ccc(C(=O)NCC(=O)Nc2cc(C)ccn2)cc1 | i | -0.86
O=C(O)c1cc(C(F)(F)F)nc2c(C(F)(F)F)cccc12 | i | 0.08
O=C(NCc1ccc2c(c1)OCO2)c1cccc(S(=O)(=O)N2CCCC2)c1 | i | -1.3
CCOC(=O)C(C(=O)OCC)[C@@H]1CS(=O)(=O)C[C@H]1C(C(=O)OCC)C(=O)OCC | i | -1
COc1cc(C2C(C(=O)c3ccc(C)o3)=C(O)C(=O)N2c2cc(C)on2)ccc1O (configuration not stated) | i | -1.5
COc1ccc2oc(=O)c(C(=O)N3CCN(C(=O)c4ccco4)CC3)cc2c1 | i | -0.03
CCn1c(C(c2ccccc2)c2ccccc2)n[nH]c1=S | i | 0.72
C=CCn1c(SCC(=O)N2CCOCC2)nnc1C(C)NC(=O)c1ccccc1 (configuration not stated) | i | 1
Cc1noc(NS(=O)(=O)c2ccc(NC(=O)CSc3ncccn3)cc2)c1C | i | 2.9
Cc1cc(C(=O)OCC(=O)Nc2cc(C)on2)c2ccccc2n1 | i | -2.6
OCCCNc1c2c(nc3cc(-c4ccc(Cl)cc4)nn13)CCC2 | i | -0.97
O=C1C(=Cc2cccn2-c2ccccc2)C(=O)c2ccccc21 | i | 3.5

Full records as entered above. Order of screens: KCNQ2 block	KCNQ2 block baseline
`COc1ccc(NC(=O)COC(=O)CNC(=O)C2CCCCC2)cc1` as listed: i	0.69
`O=C(NCc1ccc2c(c1)OCO2)c1cccc(S(=O)(=O)N2CCCC2)c1` as listed: i	-1.3
`COc1cc(C2C(C(=O)c3ccc(C)o3)=C(O)C(=O)N2c2cc(C)on2)ccc1O` (configuration not stated) as listed: i	-1.5
`CC1CN(S(=O)(=O)c2cccc(C(=O)OC/C(O)=C(\C#N)c3nc4ccccc4[nH]3)c2)CC(C)O1` (configuration not stated) as listed: i	-0.75
`O=C(O)c1cc(C(F)(F)F)nc2c(C(F)(F)F)cccc12` as listed: i	0.08

Four entries from above, field by field:
O=C1C(=Cc2cccn2-c2ccccc2)C(=O)c2ccccc21
- KCNQ2 block: i
- KCNQ2 block baseline: 3.5
Cc1cc(C(=O)OCC(=O)Nc2cc(C)on2)c2ccccc2n1
- KCNQ2 block: i
- KCNQ2 block baseline: -2.6
CCOC(=O)C1=C(O)/C(=C/N(C)C)N=C1C
- KCNQ2 block: i
- KCNQ2 block baseline: 1.8
CCOC(=O)C(C(=O)OCC)[C@@H]1CS(=O)(=O)C[C@H]1C(C(=O)OCC)C(=O)OCC
- KCNQ2 block: i
- KCNQ2 block baseline: -1

The list goes on:
SMILES | KCNQ2 block | KCNQ2 block baseline
CCCCc1c(C)nc2ccc(C(=O)OCC)cc2c1Cl | i | 0.4
CCCCc1c(O)nc(SCC(=O)Nc2cccc3ccccc23)n(-c2ccccc2OC)c1=O | i | 0.01
COc1ccc(C2(CNS(=O)(=O)c3ccccc3)CCOCC2)cc1 | i | 0.53
CCc1cc(C)cc(OCCNC(=O)c2cncc(Br)c2)c1 | i | -1.5
Cc1csc(NC(=O)CCC(=O)c2cccs2)n1 | i | -2.2
COc1ccc(N=Cc2c(OC)ccc3ccccc23)cc1 | i | -0.35
O=C(/C=C/c1ccco1)NCc1ccc(F)cc1 | i | 2.3
CCC1CCCCN1CCCNC(=O)c1cn(CC)c2ccc(S(=O)(=O)N(C)C3CCCCC3)cc2c1=O (configuration not stated) | i | -0.02
O=C(CN1CCOCC1)Nc1ccc(Cl)cn1 | i | 0.02
CC(=C/c1ccccc1)/C=N/NC(=O)c1ccc2nc[nH]c2c1 | i | 0.27
CCC(=O)Nc1ccc(C(=O)OCC(=O)c2cccs2)cc1 | i | -0.11
CC(OC(=O)CCC1CCCC1)C(=O)Nc1ccccc1[N+](=O)[O-] (configuration not stated) | i | -0.11
CCCOC(=O)c1c(NC(=O)C2CCCO2)sc(C(=O)OC)c1C (configuration not stated) | i | 2
COc1ccc(/C=N/NC(=O)C(=O)NCc2cccnc2)cc1 | i | -0.28
Cc1ccc(-c2nn(-c3ccccc3)cc2C2CC(c3ccccc3)=NN2C(=O)CCC(=O)O)cc1 (configuration not stated) | i | -1.9
Cc1noc(C)c1COc1ccccc1C(=O)N(C)CC(=O)Nc1ccc(F)cc1 | i | -0.15
CCOC(=O)N1CCC(N2CCCC(CO)(Cc3cccc(Cl)c3)C2)CC1 (configuration not stated) | i | 0.85
CC1CC(C)CN(C(=O)CSc2nnc(-c3ccc(F)cc3)o2)C1 (configuration not stated) | i | 0.25
O=C(CNS(=O)(=O)c1c(Cl)cccc1Cl)OCC(=O)c1ccc[nH]1 | i | 0.38
CCn1c(=O)c2cc(C(=O)Nc3ccccc3OC)sc2c2ccccc21 | i | 0.29
C=CCNC(=S)NCc1ccccc1OC | i | 0.22
Cc1ccccc1C(=O)N1CCN(c2ncccn2)CC1 | i | -0.19
Cc1c(C(=O)c2ccc(Cl)cc2Cl)cnc2cc3c(cc12)OCO3 | i | 0.46
O=C(OCc1cccc(Cl)c1)c1cc(S(=O)(=O)N2CCCCC2)ccc1N1CCOCC1 | i | -0.32
CC1CN(C(=O)c2cc(-c3ccc(Cl)s3)nc3ccccc23)CC(C)O1 (configuration not stated) | -8.5* | -0.42*
N/C(=N\OC(=O)c1cc([N+](=O)[O-])ccc1Cl)c1cccnc1 | i | -1.6
Cc1ccc(/S(C)=N/S(=O)(=O)c2ccc(C)cc2)cc1 (configuration not stated) | i | 0.7
COC(=O)C1=C(C)N(CCc2ccc(OC)cc2)C(=O)C1 | i | 4.2
COc1ccccc1-n1nnnc1SCC(=O)N(CC(C)C)C1CCS(=O)(=O)C1 (configuration not stated) | i | 0.38
Nc1ccc(Oc2c(Cl)cccc2Cl)nc1 | i | 0.28
Cc1cc(Br)ccc1OCCNCc1ccccc1 | i | -0.79
COc1ccc(-n2cc(CNCCCn3ccnc3)c(-c3ccccc3Cl)n2)cc1 | i | 3
CSc1nc2ccc(NC(=O)c3ccc(=O)n(C)n3)cc2s1 | i | 0.43
Cc1ccc(S(=O)(=O)NCC(c2ccc3c(c2)OCO3)N2CCN(c3ccccc3)CC2)cc1 (configuration not stated) | i | -0.28
CC(C)Cc1nnc(NC(=O)C2CCN(C(=O)c3ccc(F)cc3)CC2)s1 | i | 0.07
Cc1ccc2c(c1)C(c1ccccc1)N(C(=O)c1ccc(Br)o1)CC(=O)N2 (configuration not stated) | i | -0.27
CCC(C)N1CCNCC1 (configuration not stated) | i | -0.01
COc1cc(NC(=O)C/C(C)=N/NC(=O)C2CCCCC2)c(OC)cc1Cl | i | 1.4
COc1c(Cl)cc(Br)c(OC)c1C(=O)NC(=O)Nc1nc(C)cc(C)n1 | i | -0.36
COCCCn1c(=O)c2sccc2n2c(CCCC(=O)NCc3ccc(F)cc3)nnc12 | i | -0.21

Source: PubChem
